High-throughput results from PubChem.
A1 inh: inhibitors of the anti-apoptotic protein A1, read as caspase activation; caspase activation, % (no concentration beside the values); AID 2462; actives 0.066% (n = 330,000); MEF A1-2A-BIM cells, Caspase-Glo 3/7 luminescence, 3 h; percent of clofoctol response, vehicle zero;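 active = over half of replicate activation scores above 10%, or exactly half above 10 with the replicate mean above 10; inconclusive = replicate mean below 10 yet half the replicates above 10; inactive = over half of replicates below 10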;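 also: wells of about 30 µL received 50 nL stock; many hits fall short of the cut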
ALR inh: inhibitors of human sulfhydryl oxidase ALR | actives 3.8% (n = 290,000) | P55789 | purified ALR, DTT oxidation, H2O2 HRP-luminol luminescence | inhibition, % (concentration not given with the values);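 active = mean and each replicate at 75% or more; inconclusive = only one of the two met; inactive = neither met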;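 also: stock transfer was 7.5 nL into about 7.5 µL; 0% = neutral wells and 100% = wells with inactivated enzyme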
rRNA inh HTS: inhibits bacterial ribosomal RNA function over humanized ribosomes; E. coli WT GFP vs humanized-ribosome RFP mutants, fluorescence, 24 h; active compounds read low; DMSO median 0, no signal -100; GFP signal change (wild-type ribosome), % (test concentration not listed); actives 1.6% (n = 350,000); AID 720706;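 active = significant combined selectivity score with lowered wild-type GFP, culture density cut under 30%, mutant RFP and density less affected; inactive = any of these conditions unmet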; also: one replicate is shown; some compounds called inactive have numbers as strong as hits
Calb FLC: C. albicans growth modulation with fluconazole; growth inhibition, % (concentration not given with the values); C. albicans CaCi-2 (fluconazole-resistant clinical isolate) + fluconazole, Alamar Blue growth, 48 h; actives 0.57% (n = 300,000);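 active = most replicates above 75%; inconclusive = exactly half above 75%; inactive = most below 75%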;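 also: all wells also contain fluconazole at 8 µg/ml as a sub-toxic cotreatment; 0% = median of DMSO wells and 100% = median of geldanamycin control wells; wells of about 8 µL received 7.5 nL stock; the first replicate is given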
LANA-H2A inh: blocks KSHV LANA binding to histone H2A/H2B. cell-free LANA-H2A/H2B peptide, fluorescence polarization. actives 0.6% (n = 320,000). inhibition, % (concentration not given with the values). Q9QR71; in the data active = inhibition mostly above about 10%, no sharp cut-off; inactive = mostly below about 6.7%;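 also: stock transfer was 7.5 nL into about 10 µL; 0% = median of vehicle wells and 100% = median of positive control wells; one replicate is shown; the record names a cut of 25% in any replicate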
Target sequence (Q9QR71 whole entry, looked up): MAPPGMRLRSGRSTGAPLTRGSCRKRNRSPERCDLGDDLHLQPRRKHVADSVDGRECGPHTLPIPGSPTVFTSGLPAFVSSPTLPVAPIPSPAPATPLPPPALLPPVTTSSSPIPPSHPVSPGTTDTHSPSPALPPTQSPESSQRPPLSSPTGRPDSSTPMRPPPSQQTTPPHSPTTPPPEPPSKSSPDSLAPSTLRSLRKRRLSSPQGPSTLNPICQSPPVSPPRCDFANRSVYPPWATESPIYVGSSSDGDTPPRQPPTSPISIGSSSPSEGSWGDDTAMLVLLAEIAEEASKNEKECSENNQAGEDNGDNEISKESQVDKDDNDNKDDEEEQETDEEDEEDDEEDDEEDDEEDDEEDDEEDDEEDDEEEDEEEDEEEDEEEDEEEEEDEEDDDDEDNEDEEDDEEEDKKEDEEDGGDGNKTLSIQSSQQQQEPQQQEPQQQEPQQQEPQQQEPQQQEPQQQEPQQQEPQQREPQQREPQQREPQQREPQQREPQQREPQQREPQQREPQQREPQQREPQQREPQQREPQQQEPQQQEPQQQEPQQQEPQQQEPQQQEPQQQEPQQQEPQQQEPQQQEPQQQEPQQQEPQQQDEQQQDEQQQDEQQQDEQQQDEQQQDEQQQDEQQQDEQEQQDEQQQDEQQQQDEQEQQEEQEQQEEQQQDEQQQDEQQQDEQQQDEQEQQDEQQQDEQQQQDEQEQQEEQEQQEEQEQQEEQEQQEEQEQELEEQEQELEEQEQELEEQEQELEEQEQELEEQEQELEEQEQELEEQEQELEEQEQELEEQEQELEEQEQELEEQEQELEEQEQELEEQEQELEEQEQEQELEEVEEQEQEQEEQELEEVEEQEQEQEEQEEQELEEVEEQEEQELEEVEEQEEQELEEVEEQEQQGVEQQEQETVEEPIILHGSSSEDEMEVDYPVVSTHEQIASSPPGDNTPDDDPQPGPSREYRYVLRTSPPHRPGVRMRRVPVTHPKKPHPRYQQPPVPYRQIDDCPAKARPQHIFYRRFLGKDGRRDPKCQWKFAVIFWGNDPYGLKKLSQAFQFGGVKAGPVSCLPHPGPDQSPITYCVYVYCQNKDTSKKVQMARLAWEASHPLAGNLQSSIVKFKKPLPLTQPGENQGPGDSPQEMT
B2AR ag: human beta-2 adrenergic receptor agonism by FAP. P07550. Am2.2-beta2AR cells, FAP receptor internalization, flow cytometry; reference of the scale not given here. response, % (test concentration not listed). actives 0.43% (n = 340,000). AID 504454;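 active = response above a set limit, near 3 SD of response in nonfluorescent compounds, cut at about 42% in these data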;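 also: stock transfer was 100 nL into about 11 µL; a reference agonist was the positive control; negative values mostly stem from fluorescent compounds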
Beta cell apopt: beta cell apoptosis inhibition; INS-1E cytokine-induced death, ATP luminescence, 48 h; percent of positive-control rescue, neutral wells zero; protection from apoptosis, % (concentration not given with the values); actives 0.8% (n = 300,000);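 active = all replicates at 75% or more, or half of them and the mean; inconclusive = half reach 75% but not the mean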;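 also: 0% = cytokine-treated negative control wells and 100% = positive control rescue; higher means more ATP so stronger rescue from cytokine killing; wells of about 40 µL received 100 nL stock; the first replicate is given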
T cruzi repl: blocks replication of Trypanosoma cruzi; actives 1.4% (n = 300,000); inhibition, % (test concentration not listed); T. cruzi beta-gal in NIH3T3, luminescence, 90 h;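 active = mean inhibition across valid replicates above about 55%, limit read from the data; inconclusive = mean below that limit but half or more replicates reach it; inactive = mean below it, under half of replicates reach it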;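 also: signal also drops with host cell toxicity which is not excluded here; 0% = plate median of DMSO wells and 100% = zero luminescence signal; higher percent means less beta-gal luminescence so fewer parasites; stock transfer was 50 nL into about 50 µL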
rRNA inh HTS OD600: further read-out of rRNA inh HTS, marked with its call; OD600 change, %; measured here: OD600 growth;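 optical density of the mix in the first replicate; 0 = DMSO median and -100 = no signal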
rRNA inh HTS RFP: also measured in rRNA inh HTS; calls as there; RFP signal change, %; measured here: RFP humanized mutant strains;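 first replicate; 0 = DMSO median and -100 = no signal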
* = called active by the depositor; i = inactive; ? = inconclusive; . = no result given. This is a subset (hit frequency here may not be typical).

cpd	structure	A1 inh	ALR inh	rRNA inh HTS	rRNA inh HTS OD600	rRNA inh HTS RFP	Calb FLC	LANA-H2A inh	B2AR ag	Beta cell apopt	T cruzi repl
1	COc1cccc(-c2nnc(-c3ccc(C)o3)o2)c1	-4.6	1	.	.	.	1	1.6	6	5	-25
2	COCC(C)NC(=O)CSc1nnc(-c2cccc(S(=O)(=O)N3CCCCC3)c2)o1 (stereo unspecified)	1.1	.	3	1	-0.6	-18	-0.8	7	1	-1
3	CC1Cc2nc(SCC(=O)Nc3ccc4c(c3)OCO4)n(Cc3ccccc3)c(=O)c2S1 (stereo unspecified)	-0.1	-9	.	.	.	6	2.5	-7	-1	38
4	CCOCC(=O)Nc1cc(S(=O)(=O)N2CCOCC2)ccc1N1CCCCC1	0.3	1	.	.	.	14	-3.9	-10	1	9
5	COc1ccc(OS(=O)(=O)c2ccc(N3C(=O)CCC3=O)cc2)cc1	0.1	.	-2	-1	1.9	-4	-4.3	5	-12	-5
6	Cc1ccc(C(=O)Nc2nc(-c3ccccn3)cs2)s1	-2.9	87*	.	.	.	.	3.5	12	95*	.
7	Cc1ccc(C)c(OCc2cc(C(=O)NC(c3ccccn3)C(F)(F)F)no2)c1 (stereo unspecified)	-0.9	-12	-7	-5	3.6	6	5.0	3	-1	10
8	O=[N+]([O-])c1ccc(N2CCCCC2)cc1NCCOc1ccccc1	-0.2	-17	.	.	.	4	-0.7	-6	-5	9
9	CCCCc1nnc(NC(=O)c2ccccc2OCc2c(C)noc2C)s1	0.0	-4	-22	-49	1.0	-7	-9.2	7	.	1
10	O=C(CN1C(=O)NC2(CCc3ccccc32)C1=O)NCC(=O)Nc1ccc(F)cc1 (stereo unspecified)	-0.6	-10	7	-11	0.5	.	-2.8	2	-6	.
11	CS(=O)(=O)c1ccccc1C(=O)N(CCc1ccccc1)Cc1ccccc1	0.6	72	-26	-29	-6.5	-5	-5.7	12	5	5
12	c1cncc(-c2noc(CC3CCCCC3)n2)c1	-0.8	-1	.	.	.	-2	-6.0	-16	3	-20
13	CC(C)CN(CC(C)C)C(=O)C12CCC(C)(C(=O)O1)C2(C)C (stereo unspecified)	-0.3	-1	.	.	.	1	2.1	4	2	8
14	COc1ccc(OCc2cc(C(=O)NC(C)Cc3ccccn3)no2)c(Cl)c1 (stereo unspecified)	0.9	-1	-6	-10	-6.6	3	1.2	-3	0	-3
15	Cn1nnnc1SCC(=O)N1N=C(c2cccs2)CC1c1cccs1 (stereo unspecified)	-0.5	-7	-5	-11	0.3	.	-1.9	1	0	.
16	O=C(Nc1cccc(S(=O)(=O)N2CCCCC2)c1)c1cc(=O)[nH]c2ccccc12	0.9	2	-1	-5	4.9	.	0.3	7	-6	.
17	COc1cccc(N2C(=O)CC(N3CCc4ccccc4C3)C2=O)c1 (stereo unspecified)	0.6	-3	15	14	1.5	-1	0.9	2	-1	-12
18	CC(C)NC(=O)Nc1n[nH]c(Nc2ccc(Cl)cc2)n1	0.2	50	-18*	-7.0*	1.6*	-27	0.7	-10	-10	-10
19	Cc1cc(NC(=O)Cc2ccsc2)ccc1Br	0.4	-11	-12	-35	10	1	-2.1	1	5	2
20	Cc1ccc(NC(=O)CN(C)C(=O)c2nn(C)c(=O)c3ccccc23)cc1	0.1	-9	-11	-11	-3.9	-6	-4.1	-5	-4	-18
21	Clc1ccc(OCCOCCNCc2ccccc2)cc1Cl	0.6	-4	-30	-32	-0.2	-24	-2.3	6	.	37
22	CCOC(=O)CS(=O)(=O)c1ccccc1	-0.5	1	.	.	.	0	i	3	.	-2
23	O=C(NCCCn1ccnc1)c1ccc(Br)o1	0.9	-18	3	-5	-5.5	6	1.1	-4	.	-12
24	CCn1c(=O)cc(OCC(=O)NCc2ccc(C)o2)c2ccccc21	0.6	12	-9	-8	-0.2	-11	-2.4	5	-4	-13
25	CC(/C=C1\SC(=S)N(CCC(=O)Nc2ccc(O)cc2)C1=O)=C\c1ccccc1	0.2	-7	-8	-10	0.2	-5	-1.6	12	2	7
26	CCC(C(=O)NC1CCCCCC1)n1nc(C)c2c(C)n(-c3ccccc3)nc2c1=O (stereo unspecified)	1.1	-7	5	10	-0.8	-5	4.4	-9	6	-13
27	CCCc1nc2oc3c(NCC(C)O)ncnc3c2c2c1CCCC2 (stereo unspecified)	0.5	1	-12	-11	-5.7	-3	-0.9	-2	.	6
28	CCCCCC(=O)N1CC2(CC(c3cccc(NC(=O)[C@@H]4CCC(=O)N4)c3)=NO2)C[C@@H]1C(N)=O (stereo partly specified)	-1.3	.	0	8	1.2	-9	2.3	-3	-8	-16
29	O=C(Nc1cccc(-c2cn3ccccc3n2)c1)C1CC1	-0.2	64	-15	-18	-5.9	1	0.6	-24	-1	-9
30	CCN(CC)c1nc(Oc2ccc(C(=O)NN)cc2)nc(Oc2ccc(C(=O)NN)cc2)n1	-0.3	6	8	12	-1.6	45	-3.1	2	-2	-14

Results in LANA-H2A inh, Beta cell apopt and Calb FLC, for some of the entries so far:
no. | Molecule | LANA-H2A inh | Beta cell apopt | Calb FLC
27 | CCCc1nc2oc3c(NCC(C)O)ncnc3c2c2c1CCCC2 (stereo unspecified) | -0.9 | . | -3
28 | CCCCCC(=O)N1CC2(CC(c3cccc(NC(=O)[C@@H]4CCC(=O)N4)c3)=NO2)C[C@@H]1C(N)=O (stereo partly specified) | 2.3 | -8 | -9

Following part:
cpd	structure	A1 inh	ALR inh	rRNA inh HTS	rRNA inh HTS OD600	rRNA inh HTS RFP	Calb FLC	LANA-H2A inh	B2AR ag	Beta cell apopt	T cruzi repl
31	CCOc1ccccc1CN1CCNC(=O)C1CC(=O)NCc1nc(C)cs1 (stereo unspecified)	-0.3	-13	2	4	-0.3	-2	2.2	0	-3	-2
32	OC(COCC1COc2ccccc2O1)CN1CCN(c2ccc(F)cc2)CC1 (stereo unspecified)	0.8	81*	-17	-13	23	6	2.8	4	0	-1
33	CCOC(=O)c1cn(-c2ccccc2)nc1-c1cccnc1	-0.6	1	.	.	.	5	-1.3	-15	-2	-2
34	CCSc1nc2c(cnn2-c2ccc(C)c(C)c2)c(=O)[nH]1	1.1	0	3	6	-1.5	4	-2.6	-4	2	7
35	COc1cccc(/C=N/NC(=O)c2ccc(=O)n(C)c2)c1O	1.6	-11	.	.	.	?	0.0	2	49	-17
36	CCCc1cc(=O)[nH]c(SCC(=O)OCc2ccccc2)n1	-0.2	-10	.	.	.	5	1.1	6	-7	-4
37	CCN(CC)S(=O)(=O)c1cccc(C(=O)Nc2cc3oc4ccccc4c3cc2OC)c1	0.4	-1	9	8	5.0	0	2.8	-5	-13	30
38	CC1=CC(C)(C)Nc2ccc(OC(=O)CCN3C(=O)c4ccccc4C3=O)cc21	0.7	-1	.	.	.	43	3.8	-28	-4	-14
39	COC(=O)c1cc(-c2c(C)oc3cc(OC)ccc3c2=O)c(C)o1	-0.8	6	.	.	.	.	-0.2	11	1	.
40	CCn1c(C(=O)O)c(CC(=O)Nc2ccc(Br)cc2C)c2ccccc21	0.4	0	3	2	-2.1	-2	2.2	-1	0	-4
41	Cc1cc(C)cc(-n2nc(C)cc2N)c1	-0.9	.	-14	-8	-5.8	24	-1.0	11	-6	-10
42	O=C(Cn1cc2c(n1)CCCC2)NCCCN1CCCC1	-0.5	-20	7	4	0.1	-7	-1.3	-4	-5	-2
43	Cc1c(Br)c(C(F)(F)F)nn1CC(=O)N1CCCC1	1.4	4	.	.	.	1	2.9	-3	2	2
44	O=C(O)C1C2C=CC(C2)C1C(=O)NC1CCN(Cc2ccccc2)CC1 (stereo unspecified)	-0.6	-3	.	.	.	-9	4.6	-1	-4	5
45	CCCn1ncc(CN2CCN(Cc3ccc(C)o3)C(CCO)C2)c1C (stereo unspecified)	0.7	4	19	13	4.0	0	1.7	-4	-6	-11
46	CS(=O)(=O)N(Cc1ccccc1)c1ccc(C(=O)Nc2ccccc2Sc2ccccc2)cc1	0.3	6	-13	-18	0.7	-11	-2.9	-7	-3	19
47	CC(=O)C1(O)C(C)CC2C3CCC4CC(O)CCC4(C)C3=CCC21C (stereo unspecified)	0.7	4	.	.	.	16	0.7	-2	.	13
48	Cc1cccc(N2CCN(c3ccc(NC(=O)/C=C(/C(=O)O)c4ccccc4)cc3)CC2)c1	-0.2	96*	.	.	.	-25	2.0	-1	5	4
49	Cc1ccc(NS(=O)(=O)c2cc(C(=O)O)ccc2Cl)cc1	-1.2	-10	.	.	.	3	0.9	3	-2	-5
50	Cc1c(C(=O)NC(C)C)sc2ncn(CC(=O)N3CCC(C)CC3)c(=O)c12	0.5	-5	7	5	-1.8	-2	-1.5	-11	4	0
51	O=C(Nc1cccc(F)c1)/C(=C\c1ccco1)NC(=O)c1ccco1	0.0	8	29	7	5.8	.	0.9	5	-8	11
52	CC(OC(=O)c1cccnc1)C(=O)Nc1ccc2c(c1)OCO2 (stereo unspecified)	-0.4	-2	18	10	1.1	19	1.7	2	9	-15
53	CC(=O)Nc1ccc(Nc2nnc(-c3ccc(C)c(S(N)(=O)=O)c3)c3ccccc23)cc1	1.6	-26	-19	-13	-0.6	2	-6.0	0	5	7
54	O=C(/C=C/c1ccccc1[N+](=O)[O-])Oc1ccccc1	-0.5	4	.	.	.	-4	-0.7	.	-1	-6
55	Cc1cc(C(=O)OCC(=O)c2ccc3c(c2)NC(=O)CO3)c2ccccc2n1	-0.2	-4	.	.	.	-20	-2.6	0	-13	-4
56	COc1ccc(CCNC(=O)CN(C)S(=O)(=O)c2ccc3nc(C)sc3c2)cc1OC	-2.3	-4	0	4	-0.3	3	7.8	-2	1	3
57	O=C(O)c1cccc(CSc2nnc(Cc3ccccc3)o2)c1	0.0	2	.	.	.	8	-1.2	0	-5	1
58	O=C(N/N=C/c1ccccc1)c1[nH]c2ccc(Br)cc2c1-c1ccccc1	1.1	-14	6	15	-0.6	5	2.6	20	10	-8
59	c1ccc(/N=C2\N=C(Nc3ccccn3)c3ccccc32)nc1	-1.1	-5	8	12	17	1	1.5	15	103*	65*
60	COc1ccc(CCNC(=O)CCC(=O)N2CC(C)Oc3ccc(Cl)cc32)cc1OC (stereo unspecified)	0.3	-12	-17	-34	-15	9	9.9	3	-4	4
61	COc1cc(S(=O)(=O)NCc2ccncc2)ccc1Br	-0.7	-12	1	-5	-3.1	-2	-0.7	2	52	-6
62	C=C(C)CSc1nc2ccccc2[nH]1	-4.5	-4	.	.	.	6	0.5	1	1	-9
63	COc1ccccc1OCCNC(=O)C1CC(=O)N(Cc2ccccc2)C1 (stereo unspecified)	0.4	10	17	6	4.1	.	-1.6	3	2	.
64	COc1ccc(NC(=O)c2cn(-c3ccccc3)nc2-c2cc3ccccc3o2)cc1	0.5	-15	.	.	.	15	1.1	-4	6	47
65	CCCCNc1c(-c2ccc(OC)c(Sc3ccc(OC)cc3)c2)nc2ccccn12	-1.2	4	-22	-22	1.9	8	-0.2	28	.	44
66	CC1C/C(=C/c2ccncc2)C(=O)/C(=C/c2ccncc2)C1 (stereo unspecified)	0.3	53	-22*	-4.9*	-9.0*	1	0.5	27	112*	38
